# Screens: PubChem, National Center for Advancing Translational Sciences (NCATS)
# Cruzain inh Det: cruzain (T. cruzi) inhibition with detergent. Potency, µM, for inactives: max response, negative = inhibition, most hits filed as inhibitors. purified cruzain, Z-FR-AMC fluorescence, 0.01% Triton. actives 0.43% (n = 200,000);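 note: plate controls were neutral wells for no effect and buffer without enzyme for full effect; nearly all actives have a fitted effect of over 40% in size; top concentration of the series not given in the record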
# Target sequence (P25779 123-467 limits assumed): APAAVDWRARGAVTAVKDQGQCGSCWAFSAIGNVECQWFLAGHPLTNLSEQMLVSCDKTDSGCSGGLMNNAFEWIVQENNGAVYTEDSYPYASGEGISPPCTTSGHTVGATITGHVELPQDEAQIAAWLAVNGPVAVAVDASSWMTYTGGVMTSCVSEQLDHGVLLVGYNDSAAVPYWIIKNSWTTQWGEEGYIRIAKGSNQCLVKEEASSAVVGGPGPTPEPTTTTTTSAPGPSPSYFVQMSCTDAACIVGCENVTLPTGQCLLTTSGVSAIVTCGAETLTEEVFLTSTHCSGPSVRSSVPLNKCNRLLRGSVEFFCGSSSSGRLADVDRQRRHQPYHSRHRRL
#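 Compounds were screened in titration against cruzain (1.5 nM) with 0.01% Triton X-100 to counter colloidal aggregation. Activity was the AMC fluorescence increase over 60 s after adding 2 uM Z-FR-AMC at pH 5.5.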
# SARS PLP yeast: inhibitors of SARS-CoV papain-like protease in yeast. S. cerevisiae expressing SARS-CoV PLpro, growth rescue; control for the full effect not named in the record. Potency, µM (highest dose often 32.9 µM), for inactives: top-dose activity, positive = growth rescue. actives 0.19% (n = 330,000). AID 485353; active means well fitted rising curve with a large enough effect; inconclusive means small, poorly fitted or top-dose-only effect; inactive means no such curve, though single readings can be large or run the other way; note: 0% is about no effect; nearly all actives have a fitted effect of over 55% in size; growth read by luminescence after 48 h
# 2A StopGo: FMDV 2A StopGo reporter, luciferase signal | human cells with a luciferase reporter of 2A StopGo recoding; control for the full effect not named in the record | Potency, µM (doses to about 57.9 µM), inactives show at the highest dose signal change, negative = less light | actives 1.2% (n = 410,000) | AID 1159524; active = well fitted falling curve with a large enough effect; inconclusive = small, poorly fitted or top-dose-only effect; inactive = no such curve, though single readings can be large or run the other way; tested in HEK293T cells; note: % is set by controls: 0 for no effect and ±100 for the full control effect; nearly all actives have a fitted effect of over 45% in size; luciferase light after 4 h
# LASV entry inh: inhibitors of Lassa virus binding or cell entry | Lassa virus pseudotype entry inhibition, cell reporter; control for the full effect not named in the record | actives 1.2% (n = 300,000) | Potency, µM (highest dose often 37.9 µM), for the others: top-dose activity change, negative = inhibition, hits mostly inhibitors; active means well fitted inhibition curve with a large enough effect; inconclusive means small, poorly fitted or top-dose-only effect, or effect the other way; inactive means flat fitted curve, though single readings scatter; tested in HEK293 cells; note: % is set by controls: 0 for no effect and ±100 for the full control effect; nearly all actives have a fitted effect of over 50% in size; luciferase read-out
# MARV entry inh: Marburg virus entry inhibition; Marburg virus pseudotyped entry inhibition, cell reporter; control for the full effect not named in the record; about a third of the inactives were read at about 46 µM; Potency, µM (highest dose often 37.8 µM), for inactives: at the highest dose activity change, negative = inhibition, most hits filed as inhibitors; actives 1.8% (n = 300,000); AID 540276; active = well fitted inhibition curve with a large enough effect; inconclusive = small, poorly fitted or top-dose-only effect, or effect the other way; inactive = flat fitted curve, though single readings scatter; tested in HEK293 cells; about a fifth of its hits are not listed in these tables; note: % is set by controls: 0 for no effect and ±100 for the full control effect; luciferase read-out
# RE007 growth inh: less growth of the S. pombe RE007 Vpr strain; S. pombe RE007 Vpr strain, BacTiter-Glo ATP luminescence, 24 h; control for the full effect not named in the record; Potency, µM (highest dose often 92.2 µM), for the others: at the top dose activity change, negative = less growth; actives 0.21% (n = 360,000); active = well fitted falling curve with a large enough effect; inconclusive = small, poorly fitted or top-dose-only effect; inactive = no such curve, though single readings can be large or run the other way;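 note: % is set by controls: 0 for no effect and ±100 for the full control effect; nearly all actives have a fitted effect of over 50% in size; the assay follows cell death caused by Vpr and the record does not say whether a fall means rescue or toxicity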
#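 Fission yeast strain RE007, carrying one chromosomally integrated HIV-1 vpr copy, was seeded at OD 0.01 in PMG+AL medium with 23 nL pinned compound. After 24 h at 30 °C and 99% humidity, viability was read by BacTiter-Glo luminescence.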
# Cruzain inh noDet: blocks cruzain activity in detergent-free assay; purified cruzain, Z-FR-AMC fluorescence, no detergent; actives 2.3% (n = 200,000); Potency, µM, for the others: max response, negative = inhibition, hits mostly inhibitors; P25779;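 note: plate controls were enzyme without inhibitor for no effect and buffer without enzyme for full effect; nearly all actives have a fitted effect of over 40% in size; top concentration of the series not given in the record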
#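 Detergent-free condition (0.00005% Triton X-100) in acetate buffer pH 5.5 with DTT. 1.5 nM enzyme and compound were pre-mixed 15 min, then 2 uM Z-FR-AMC substrate added; reaction progress from fluorescence change between first and third reads (60 s).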
# NS1 function inh: inhibitors of influenza NS1 protein function; Potency, µM (highest dose often 46.1 µM), for inactives: at the highest dose activity, positive = more growth; AID 2326; actives 0.4% (n = 270,000); S. cerevisiae slowed by influenza A NS1, growth recovery by OD600; active means well fitted rising curve with a large enough effect; inconclusive means small, poorly fitted or top-dose-only effect; inactive means no such curve, though single readings can be large or run the other way; note: nearly all actives have a fitted effect of over 50% in size
#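 Recovery from NS1-induced slow growth read by OD600 in budding yeast switched to galactose assay medium (pH 6.0, -URA) at 1:100 dilution. Compound 23 nl per well; the matching strain lacking NS1 serves as control.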
# Starred values were filed as active, the others as inactive; u = inconclusive; x = not tested or not shown; & = joins results of further samples; [ ] = another dose, or the depositor's remark. Unless noted, calls come from the whole dose curve; as a rule, active = well fitted curve in the direction sought with a large enough effect; inconclusive = small, poorly fitted or top-dose-only effect, or another doubt; inactive = no such curve, though single readings can be large; an effect the other way counts as inactive or inconclusive. Potency is the fitted concentration of half-maximal effect.
Structure | Cruzain inh Det | SARS PLP yeast | 2A StopGo | LASV entry inh | MARV entry inh | RE007 growth inh | Cruzain inh noDet | NS1 function inh
O=C(C1=C(O)C(=O)N(c2ncccn2)C1c1ccc(Cl)c(Cl)c1)c1ccco1 (stereo not given) | -15% | -4% | x | 21% | -3% | -7% | u | u
CCn1cnc2c1c(=O)n(CC(=O)NCC(C)C)c(=O)n2Cc1ccccc1 | x | 3% | -15% | x | x | 1% | x | 3%
CC(C)(C)c1cc(C(=O)NCC(=O)OCC(=O)c2cccc([N+](=O)[O-])c2)cc(C(C)(C)C)c1 | -9.4% | 12% | -11% | 2% | u | 16% | -8% | 10%
COc1cccc(N2CCN(c3ccc4nnc(CCC(=O)Nc5ccc(C)cn5)n4n3)CC2)c1 | x | -1% | -19% | x | x | 12% | x | 13%
COc1ccc(NS(=O)(=O)c2cn(C)cn2)cc1 | x | 0% | -1% | 17% | -7% | -2% | x | 2%
CC(CC(=O)NCCc1ccc(Cl)cc1)S(=O)(=O)c1ccc2c(c1)NC(=O)CO2 (stereo not given) | x | -1% | -27% | -13%[46.1 µM] | 0%[46.1 µM] | 12% | x | -13%
O=C(CSCc1nc2cccnc2n1C1CCCCC1)NCc1cccc(Cl)c1 | -4.1% | x | -9% | 3%[46.1 µM] | x | x | 11% | x
CC(C)(C)c1nnc(N/N=C/c2ccc(O)cc2)n(N)c1=O | -10% | 3% | -4% | -4% | 10% | 6% | -2% | -5%
COc1cccc(CN2CC(C(=O)NCCn3cccn3)CCC2=O)c1 (stereo not given) | x | 0% | -8% | 11%[46.1 µM] | 28%[46.1 µM] | 3% | x | 3%
COc1nc2ccccc2cc1-c1noc(-c2cccnc2)n1 | 3.3% | 21% | x | x | x | x | -14% | -4%
Cc1nnc(SCc2ccc(Cl)c(Cl)c2)s1 | x | -1% | 31%[activator] | 13% | -9% | 21% | x | -8%
CCOC(=O)N1CCN(C(=O)c2ccc3c(=O)n(CCOC)c(=O)[nH]c3c2)CC1 | 6.9% | 1% | -16% | 6% | u | 7% | -2% | 2%
CCOc1cc(C(=O)NCCc2csc(-c3ccc(C)cc3)n2)cc(OCC)c1OCC | -4.0% | x | -12% | -3%[46.1 µM] | x | x | -5% | x
N#Cc1ccncc1Sc1ccc(Cl)cc1 | x | -1% | -3% | 13% | 20% | -9% | x | 4%
c1ccc(CN2CCN(Cc3ccc4ccccc4c3)CC2)cc1 | x | -2% | -13% | -4% | -17% | -10% | x | -14%
O=[N+]([O-])c1ccc(Oc2ccc(S(=O)(=O)N3CCOCC3)cn2)cc1 | x | x | 0% | 0% | u | 22% | x | x
COc1ccc2[nH]cc(CCN=C(NC(=O)c3cccc(Cl)c3)Nc3nc(C)cc(C)n3)c2c1 | -1.3% | x | u | 1%[46.1 µM] | u | x | -29% | x
CC(C)(C)NC(=O)C(c1ccc(F)cc1)N(C(=O)CCC(=O)Nc1ccccn1)C1CCCC1 (stereo not given) | x | 6% | 5% | 17%[46.1 µM] | u | -14% | x | -5%
Cc1ccc(OCC(=O)NNC(=O)C2CCN(c3ncccn3)CC2)cc1 | 1.4% | 5% | x | 4% | -18% | -14% | -12% | 18%
Cc1ccc(NS(=O)(=O)N2CCOCC2)c(C)c1 | x | 4% | -11% | x | x | -5% | x | 12%
O=C(CSc1nc(=O)[nH]c2c1CCCC2)NCc1ccc(F)cc1 | 0.2% | x | -19% | 15%[46.1 µM] | x | x | 2% | x
Cc1nc(-c2ccc(NC(=O)c3ccc(Br)o3)cc2)cs1 | x | -17% | -36% | u | u | u | x | -12%
CCOc1cc(CN2CCN(C(=O)c3ccco3)CC2)ccc1OC | 1.7% | 5% | -27% | -5% | -23% | 8% | 8% | -3%
COc1ccc(C)cc1NC(=O)c1ccc2c(SCC(=O)O)c3c(nc2c1)CCCC3 | -0.2% | 2% | -19%&-6% | u | 13%&-2%[46.1 µM] | 17% | 0% | -3%
Cc1noc(/C=C/c2ccco2)c1S(=O)(=O)N1CCC(C(=O)NC(C)c2ccccc2)CC1 (stereo not given) | -4.4% | 4% | -14% | x | 4% | 2% | -7% | 7%
Cc1cccnc1NC(=O)c1cccc(S(=O)(=O)N2CCN(c3ccc(F)cc3)CC2)c1 | x | -8% | u | u | -26% | -18% | x | -8%
CCc1nnc(NC(=O)CCC(=O)NC2CC2)s1 | x | 1% | 11% | x | x | 5% | x | -3%
CCc1cc2c(=O)n3c(nc2s1)-c1[nH]c2ccc(OC)cc2c1CC3 | -4.8% | 13% | 35%[activator] | u | u | -11% | 9% | 1%
CCOc1cccc(CNc2ccc(O)cc2)c1OCc1ccc(Cl)cc1 | 2.9% | -17% | u | u | -14% | -8% | -2% | -10%
CCOC(=O)c1c(NC(=O)COc2ncnc3sccc23)sc2c1CCC2 | -5.6% | -1% | -15% | 19% | -15% | 4% | 3% | u

# Further results.
Structure | Cruzain inh Det | SARS PLP yeast | 2A StopGo | LASV entry inh | MARV entry inh | RE007 growth inh | Cruzain inh noDet | NS1 function inh
O=C(CNC1CCCCC1)Nc1cccc([N+](=O)[O-])c1 | x | x | 27% | 4%[46.1 µM] | -13%[46.1 µM] | 6% | x | x
CCn1c(SCC(=O)Nc2ccccc2N2CCOCC2)nnc1-c1ccccc1O | -2.1% | -4% | 0% | -5% | u | -3% | 12% | 0%
COC(=O)CCC(=O)Nc1ccccc1C(=O)Nc1ccccc1 | 4.2% | 2% | -15% | 13% | u | -7% | 1% | -7%
C/C(=N\O)c1ccc2c3ccccc3n(C)c2c1 | -15% | -10% | 36%[activator] | u | 11% | u | -23% | -63%
Cc1cc2nnc(SCC(=O)NCc3cccs3)n2c(N)n1 | 1.4% | 8% | -15% | -11% | 0% | -8% | -8% | 6%
CC(Sc1nc2nn(-c3ccccc3)c(=O)c-2c2n1CCCCC2)C(N)=O (stereo not given) | -2.5% | -5% | -14% | 2% | 12%[46.1 µM] | 6% | -7% | 0%
O=C(Nc1ccccc1O)c1ccc2c(c1)C(=O)N(c1ccccc1)C2=O | x | -8% | -10% | -28% | -2% | 6% | x | 2%
CCOC(=O)c1c(C)[nH]c(C(=O)N/N=C/c2cc([N+](=O)[O-])ccc2O)c1C | x | -2% | -12% | 6.5µM* | u | 4% | x | 12%
COc1ccc(C2(C)NC(=O)N(CC(=O)Nc3cccnc3Cl)C2=O)cc1 (stereo not given) | x | -5% | -5% | 16% | 1% | 4% | x | 19%
Nc1nc(-c2nonc2N)no1 | x | 0% | -3% | 19%[46.1 µM] | 14%[46.1 µM] | -21% | x | x
O=C(Nc1ncc(Cc2ccc(C(F)(F)F)cc2)s1)c1ccc(-c2cccc([N+](=O)[O-])c2)o1 | -2.5% | 8% | u | -26% | u | 24% | 13µM* | 20%
COc1cccc(-n2c(SCC#N)nnc2-c2cnccn2)c1 | -1.0% | 3% | -8% | -10% | u | 11% | -6% | -1%
CCOC(=O)c1cc2c(nc1NC(=S)Nc1ccccc1)CC(C)(CC)OC2 (stereo not given) | -0.9% | 12% | -21% | u | 17%[46.1 µM] | 20% | 13% | 5%
Cc1cc(Br)cc(Cl)c1OC(=O)c1ccncc1 | x | -5% | -14% | -8%[46.1 µM] | -3%[46.1 µM] | 5% | x | -47%
COc1ccc2c(CCNC(=O)c3ccc([N+](=O)[O-])cc3)c[nH]c2c1 | x | 3% | -23% | 0%[46.1 µM] | -22%[46.1 µM] | -5% | x | 1%
CCOC(=O)C1CCN(C(=O)C2CCC(=O)N(CC3CCCCC3)C2)CC1 (stereo not given) | x | -1% | -2% | -14%[46.1 µM] | u | 3% | x | 2%
Cc1cccc(OCC2Cn3c(nc4c3c(=O)[nH]c(=O)n4C)O2)c1 (stereo not given) | x | 0% | u | -5% | -3% | -8% | x | 6%
Cn1c(=O)oc2cc(S(=O)(=O)N3CCCC(C(=O)N4CCc5ccccc5C4)C3)ccc21 (stereo not given) | 2.3% | -4% | -19% | x | 0% | -10% | u | -1%
CCCc1cc(=O)[nH]c(SCc2nc(-c3ccc(OCC)cc3)no2)n1 | -0.5% | x | -14% | 20%[46.1 µM] | x | x | 2% | x
O=C(CNC(=O)c1ccccc1)N/N=C/c1cn[nH]c1-c1ccccc1 | -3.9% | 12% | -30% | -2% | 0% | 1% | -6% | -5%
C=C(C)COc1ccc(-c2nc(N)ncc2-c2ccc(OC)c(OC)c2)c(O)c1 | x | -6% | -22% | -2%[46.1 µM] | 13µM* | 8% | x | 8%
CC1CCN(CCOCCSc2ccc(Cl)cc2)CC1 | x | 1% | -26% | x | x | -23% | x | -6%
Cc1ccc(-c2nnc(SCC(=O)NC3CCCC3)n2N)cc1 | x | 20% | -2% | 2% | 1% | 11% | x | x
Cc1ccccc1NS(=O)(=O)c1cc(C(=O)NCCC2=CCCCC2)ccc1Cl | -1.7% | -12% | -24% | u | u | -2% | -1% | 16%
C#CCNC(=O)C1=C[C@@H](c2ccc(Br)cc2)C[C@@H](OCCCCO)O1 | x | -3% | -5% | x | x | 3% | x | -5%
CC(C)(C)c1ccc(CCC2OCC(C[N+]3(C)CCOCC3)O2)cc1 (stereo not given) | x | 0% | -18% | 8% | u | 2% | x | 0%
CCCCNC(=O)C1CC(=O)N(C2CCCCC2)C1 (stereo not given) | 3.5% | 2% | x | 2% | 6% | -15% | -2% | 23%
NS(=O)(=O)c1ccc(NC(=O)NC2CC(=O)N(c3ccc4c(c3)OCCO4)C2)cc1 (stereo not given) | x | -5% | 15% | 20% | 0% | 10% | x | x
O=C1c2ccccc2NC(c2ccco2)N1/N=C/c1ccco1 (stereo not given) | x | 0% | -2% | -3%[46.1 µM] | 0% | 11% | x | 5%
Cc1cccc(NC(=O)COC(=O)c2cc(C)oc2C)c1 | x | -6% | -9% | 0% | 23%[46.1 µM] | 10% | x | x
O=C1/C(=C/c2ccco2)CCc2ccccc21 | 2.2µM* | -1% | -39% | u | u | u | 2µM* | -2%
CCOc1ccc([N+](=O)[O-])cc1CNC1CCCCCCC1 | x | -1% | -18% | x | x | 0% | x | -17%
CCn1cc(CN2CCCC(CNS(=O)(=O)c3cccc4cccnc34)C2)cn1 (stereo not given) | x | x | -10% | -1% | -4% | -17% | x | 12%
